AID923: qHTS Assay for Allosteric/Competitive Inhibitors of Caspase-1: Spectroscopic Profiling in AFC Spectral Region | 75,000 compounds, 1.1% hits | compound fluorescence, AFC spectral region (405/520 nm); almost no hit is shown here | Potency, µM (doses to about 57.5 µM), for inactives: at the highest dose fluorescence increase, hits mostly activators; active means well fitted activation curve with a large enough effect; inconclusive means small, poorly fitted or top-dose-only effect;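 further: potency means the concentration at half of the fitted maximal effect; 0% is about no effect; scaled to a free AFC standard on each plate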
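Compound autofluorescence profiled at 405 nm ex/520 nm em during kinetic caspase 1 run (50 nM enzyme, 5 uM Ac-WEHD-AFC, HEPES pH 7.5, 10 mM DTT). Titration up to 57 uM; baseline from regression intercept, normalized to AFC standard curve.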
Resorufin autofl: resorufin region autofluorescence; Compound fluorescence, resorufin region 547/598 nm, buffer; hits give high values; max dye-equivalent concentration, M; 59,000 compounds, 0.04% hits; AID 588; active = above 10 nM dye equivalent; inconclusive = 1 to 10 nM; inactive = 1 nM or less; a few of its hits are not listed in these tables; further: highest value over a series up to 38 µM
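Dye-equivalent concentration values derive from comparing each well's 547/598 nm fluorescence against resorufin standards included on every plate. Incubation was 15 min at room temperature in 100 mM Tris, pH 8.0.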
A488 fluor: compound fluoresces in the A488 spectral region | compound autofluorescence, A488 spectral region, dye equivalency; hits give high values | max dye equivalency, M | 59,000 compounds, 0.1% hits; active = above 10 nM dye equivalent; inconclusive = 1 to 10 nM; inactive = 1 nM or less; about half of its hits are not listed in these tables;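 further: highest value over a series up to 38 µM; compound alone in buffer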
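Read-out: relative fluorescence at 480/540 nm, expressed as Alexa 488 dye-equivalent concentration from a six-point A488 standard included per plate. Conditions: 100 mM Tris, pH 8.0; 15 min incubation, room temperature.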
TSHR agonist: agonists of human thyroid stimulating hormone receptor | 73,000 compounds, 0.48% hits | Potency, µM (series often up to 57.1 µM), for inactives: top-dose activation, most hits filed as activators | P16473 | HEK293-CNG-TSHR cells (CNG channel as cAMP sensor), membrane potential dye, cAMP; active = well fitted activation curve of enough size with the parental cells flat; inconclusive = any curve in the parental cells; inactive = parental cells flat and receptor cells flat or falling; further: potency means the concentration at half of the fitted maximal effect; % of control where 0% means no effect; weak receptor curves with flat parental cells got no call and are not listed
Target sequence (P16473 whole entry, looked up): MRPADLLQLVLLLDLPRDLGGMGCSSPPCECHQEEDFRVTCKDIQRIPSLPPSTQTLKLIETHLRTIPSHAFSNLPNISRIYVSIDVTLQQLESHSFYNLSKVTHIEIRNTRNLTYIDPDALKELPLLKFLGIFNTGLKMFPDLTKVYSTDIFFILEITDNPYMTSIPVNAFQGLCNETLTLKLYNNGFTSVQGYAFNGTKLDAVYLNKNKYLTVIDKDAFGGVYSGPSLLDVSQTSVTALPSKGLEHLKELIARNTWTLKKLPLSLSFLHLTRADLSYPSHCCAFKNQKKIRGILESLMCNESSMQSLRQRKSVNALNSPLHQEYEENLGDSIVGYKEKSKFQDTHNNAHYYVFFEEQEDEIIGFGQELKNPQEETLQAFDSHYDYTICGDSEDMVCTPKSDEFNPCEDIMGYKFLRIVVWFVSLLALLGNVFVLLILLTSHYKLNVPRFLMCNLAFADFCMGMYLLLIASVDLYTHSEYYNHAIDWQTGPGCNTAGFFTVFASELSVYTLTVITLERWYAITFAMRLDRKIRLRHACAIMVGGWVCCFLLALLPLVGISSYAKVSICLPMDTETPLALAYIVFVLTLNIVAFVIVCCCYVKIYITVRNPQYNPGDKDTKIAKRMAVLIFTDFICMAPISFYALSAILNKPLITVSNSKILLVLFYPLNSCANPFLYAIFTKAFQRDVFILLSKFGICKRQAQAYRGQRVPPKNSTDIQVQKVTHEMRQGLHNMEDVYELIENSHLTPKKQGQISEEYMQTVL
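HEK 293 cells stably expressing TSHR and a cAMP-gated CNG channel; parental CNG-only cells as counterscreen. Cells preloaded 60 min with membrane potential dye plus 100 uM RO 20-1724, then compound 30 min; fluorescence read at 590 nm.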
A647 fluor: compound fluoresces in the A647 spectral region. Compound fluorescence, A647 channel (570/671 nm), Tris buffer. max dye-equivalent concentration, M. 59,000 tested, under 10 active. AID 592; active means above 1 µM dye equivalent; inconclusive means 0.1 to 1 µM; inactive means 0.1 µM or less;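 further: values scaled relative to a standard on each plate; highest value over a series up to 38 µM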
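Tris 100 mM pH 8.0; cpd + A647 stds pin-transferred; 15 min RT; CCD imager, ex 570/em 671. Output = A647-equivalent conc. per cpd conc.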
Numbers without * were called inactive; [ ] = another dose, or the depositor's remark. An excerpt; rates above refer to the full screens.

For CC(=O)Nc1ccc(OCC(O)CN2CCN(c3ccc(C)c(Cl)c3)CC2)cc1 (centres undefined) the results were AID923 -3.4%, Resorufin autofl inactive, A488 fluor inactive, TSHR agonist -1% and A647 fluor 2.1e-08.
For Cc1cc2cc(CN(CCN3CCOCC3)C(=O)Nc3ccccc3F)c(=O)[nH]c2cc1C the results were AID923 1.3%, Resorufin autofl inactive, A488 fluor inactive, TSHR agonist 14% and A647 fluor 1e-09.
`O=S(=O)(c1ccccc1)N1CCC[C@@]2(CCN(c3ncccn3)C2)C1` gave AID923 3.7%, Resorufin autofl inactive, A488 fluor inactive, TSHR agonist 7% and A647 fluor 1e-09.
O=C(O)CSCNC(=O)CC12CC3CC(CC(C3)C1)C2 was read as AID923 -0.2%, Resorufin autofl inactive, A488 fluor inactive, TSHR agonist 3% and A647 fluor 1.2e-09.
For CCOC(=O)N1CCC(NC(=O)c2cc(C(=O)NCc3cccc(Cl)c3)ccc2CO)CC1 the results were AID923 0.6%, Resorufin autofl inactive, A488 fluor inactive, TSHR agonist 15% and A647 fluor 8e-09.
Screening COc1cccc(-c2cc(NCc3cnc(C)cn3)ncn2)c1 returned AID923 -0.8%, Resorufin autofl inactive, A488 fluor inactive, TSHR agonist 3% and A647 fluor 1e-09.
Cc1cc(NC(=O)CSc2c(C)[nH]c3ccccc23)no1 was read as AID923 2.2% and TSHR agonist -6%.
`Cc1ccc(N2C(=O)Nc3ccc(Br)cc3C2(O)C(=O)NCCCN(C)C)cc1C` (centres undefined) gave AID923 1.0%, Resorufin autofl inactive, A488 fluor inactive, TSHR agonist 5% and A647 fluor 8.3e-09.
For Cc1c(Cl)cccc1N1C(=O)c2ccccc2C1=O the results were AID923 3.0% and TSHR agonist 3%.
`O=C(NC1CCCCCCC1)C1CCN(S(=O)(=O)N2CCCC2)CC1` gave AID923 -2.4%, Resorufin autofl inactive, A488 fluor inactive, TSHR agonist 12% and A647 fluor 1.9e-09.
For Cc1nc2cncc(Br)c2n1C the results were AID923 2.1%, Resorufin autofl inactive, A488 fluor inactive, TSHR agonist -10% and A647 fluor 3.1e-08.
For CC(C)Oc1ccc(C(=O)NCc2ccco2)cc1 the results were AID923 -0.7%, Resorufin autofl inactive, A488 fluor inactive, TSHR agonist 0% and A647 fluor 1.7e-08.
For O=S(=O)(Nc1ncccn1)c1ccc(Nc2ncnc3ccccc23)cc1 the results were AID923 -0.2%, Resorufin autofl inactive, A488 fluor inactive, TSHR agonist 2% and A647 fluor 1e-09.
C=CCn1c(=N)n(CC(O)COc2ccccc2OC)c2ccccc21 (centres undefined) was read as AID923 3.5% and TSHR agonist 21%.
`CCn1nc(C(=O)OC2CCOC2=O)c2ccccc2c1=O` (centres undefined) gave AID923 -1.7%, Resorufin autofl inactive, A488 fluor inactive, TSHR agonist 1% and A647 fluor 2.8e-08.
`COC(=O)[C@H]1C[C@@H]1[C@H](NC(C)=O)c1ccccc1` gave AID923 1.6% and TSHR agonist 2%.
Screening CC1CN(C(=O)c2cn3ccccc3n2)CC(C)O1 (centres undefined) returned AID923 -0.2%, Resorufin autofl inactive, A488 fluor inactive, TSHR agonist 10% and A647 fluor 1.2e-08.
`COC(=O)NCC12CC3CC(C1)CC(CNC(=O)OC)(C3)C2` gave Resorufin autofl inactive, A488 fluor inactive and A647 fluor 8.3e-08.
Screening CCOc1ccc2nc(NC(NC(C)=O)(C(=O)OC)C(F)(F)F)sc2c1 (centres undefined) returned Resorufin autofl inactive, A488 fluor inactive and A647 fluor 1.9e-09.
For CCOC(=O)c1sc2ncn(/N=C/N(C)C)c(=O)c2c1C the results were AID923 3.7% and TSHR agonist -5%.
Screening Cc1ccc(N(CC(N)=O)C2SC(=O)N(Cc3ccccc3)C2=O)cc1 (centres undefined) returned AID923 -0.4%, Resorufin autofl inactive, A488 fluor inactive, TSHR agonist -7% and A647 fluor 5.9e-09.
`O=C(Cn1cnc2c(cnn2-c2ccc(F)cc2)c1=O)N1CCN(c2ccccc2F)CC1` gave AID923 0.1%, Resorufin autofl inactive, A488 fluor inactive, TSHR agonist 25% and A647 fluor 3.8e-09.
For O=C(c1ccc2c(c1)OCO2)N1CCN=C1SCc1cccnc1 the results were AID923 1.4% and TSHR agonist 3%.
`O=S(=O)(NCC1CCCO1)c1cccc2nsnc12` (centres undefined) gave AID923 -3.2% and TSHR agonist -9%.
`CCCC(C(=O)NCC1CCCO1)N(Cc1ccco1)C(=O)CNS(=O)(=O)c1ccccc1` (centres undefined) gave AID923 -1.7%, Resorufin autofl inactive, A488 fluor inactive, TSHR agonist -2% and A647 fluor 1e-09.
For O=C(NCc1ccco1)c1cc2c(s1)CSC2 the results were AID923 5.1%, Resorufin autofl inactive, A488 fluor inactive, TSHR agonist -19% and A647 fluor 1e-09.
For Cc1nccn1-c1cc(C(C)C)c(C#N)c2nc3ccccc3n12 the results were Resorufin autofl inactive, A488 fluor inactive and A647 fluor 1e-09.
CC(=O)Nc1ccc(NC2=CC(=O)CC(C)(C)C2)cc1 was read as AID923 3.5% and TSHR agonist -2%.
O=C(c1ccco1)N1CCN(S(=O)(=O)c2cccc3nsnc23)CC1 was read as AID923 -0.5%, Resorufin autofl inactive, A488 fluor inactive, TSHR agonist -1% and A647 fluor 1.8e-08.
`O=C(CCN1C(=O)c2ccccc2C1=O)Nc1ccc(S(=O)(=O)N2CCOCC2)cc1` gave AID923 0.1%, Resorufin autofl inactive, A488 fluor inactive, TSHR agonist 2% and A647 fluor 1e-09.

In the list so far, two contain an aryl methoxy group:
Screening COc1cccc(-c2cc(NCc3cnc(C)cn3)ncn2)c1 returned AID923 -0.8%, Resorufin autofl inactive, A488 fluor inactive, TSHR agonist 3% and A647 fluor 1e-09.
C=CCn1c(=N)n(CC(O)COc2ccccc2OC)c2ccccc21 (centres undefined) was read as AID923 3.5% and TSHR agonist 21%.

Arranged by molar mass (high to low): some entries from above
`O=C(Cn1cnc2c(cnn2-c2ccc(F)cc2)c1=O)N1CCN(c2ccccc2F)CC1` gave AID923 0.1%, Resorufin autofl inactive, A488 fluor inactive, TSHR agonist 25% and A647 fluor 3.8e-09.
For CCOC(=O)c1sc2ncn(/N=C/N(C)C)c(=O)c2c1C the results were AID923 3.7% and TSHR agonist -5%.
`COC(=O)[C@H]1C[C@@H]1[C@H](NC(C)=O)c1ccccc1` gave AID923 1.6% and TSHR agonist 2%.

The listing continues.
Cc1csc(NC(=O)CSc2nnc(Cn3c(=O)sc4ccccc43)n2-c2ccccc2)n1 was read as AID923 1.0% and TSHR agonist 6%.
For COc1ccc2cc(CCNC(=O)c3ccc4c(c3)OCO4)c(=O)[nH]c2c1 the results were AID923 -5.7% and TSHR agonist 0%.
COCCn1c(=O)c(CCc2ccccc2)nc2cnc(OC)nc21 was read as AID923 2.0%, Resorufin autofl inactive, A488 fluor inactive and A647 fluor 2.6e-08.
Screening CCCC[C@@H]1C[C@H]1C(NC(=O)Cc1ccccc1)c1ccc(-c2ccccc2)cc1 (some centres undefined) returned AID923 0.1% and TSHR agonist 1µM*.
CC(C(=O)Oc1ccc2c(c1)OCO2)N1C(=O)c2ccccc2C1=O (centres undefined) was read as AID923 -2.3%, Resorufin autofl inactive, A488 fluor inactive, TSHR agonist 1%[11.4 µM] and A647 fluor 3.7e-08.
`COc1ccc(CC(=O)Nc2c3c(nn2-c2cccc(Cl)c2)CS(=O)C3)cc1` (centres undefined) gave AID923 1.7%, Resorufin autofl inactive, A488 fluor inactive, TSHR agonist 4% and A647 fluor 1.2e-08.
For C[N+]1(CCCC[N+]2(C)CCCCCCC2)CCCCCCC1 the results were AID923 -1.1%[11.5 µM], Resorufin autofl inactive, A488 fluor inactive, TSHR agonist -2%[11.4 µM] and A647 fluor 1.1e-08.
For COC(=O)[C@@]1(Cc2ccc(OC)cc2)[C@H]2c3cc(C(=O)N4CCCC4)n(CCc4ccc(O)c(OC)c4)c3C[C@H]2CN1C(=O)c1ccccc1 the results were AID923 2.2% and TSHR agonist inconclusive.
Screening COc1ccc(-c2csc(Cc3nnc(N4CCOCC4)n3-c3ccccc3)n2)cc1 returned AID923 -0.8%, Resorufin autofl inactive, A488 fluor inactive, TSHR agonist 9% and A647 fluor 1e-09.
`Cc1sc2nnn(CC(=O)N3CCN(C(=O)c4ccco4)CC3)c(=O)c2c1C` gave AID923 9.0%, Resorufin autofl inactive, A488 fluor inactive, TSHR agonist -7% and A647 fluor 1e-09.
Cn1c(C(=O)NCCN2CCN(c3ccccc3F)CC2)cc2c(=O)n(C)c3ccccc3c21 was read as AID923 1.5% and TSHR agonist 4%.
`CCOC(=O)c1sc(NC(=O)CSc2nnnn2-c2ccc(C)cc2)c(C(=O)OCC)c1C` gave AID923 0.2%, Resorufin autofl inactive, A488 fluor inactive, TSHR agonist 6%[11.4 µM] and A647 fluor 2.1e-08.
For COCCn1c(C)cc(C(=O)COC(=O)c2n[nH]c3ccccc23)c1C the results were AID923 3.8%, Resorufin autofl inactive, A488 fluor inactive, TSHR agonist 13% and A647 fluor 1.7e-09.
For O=C(N1CCCC1)N1CCN(c2ncnc3c(-c4ccc(Cl)cc4)nsc23)CC1 the results were AID923 1.5%, Resorufin autofl inactive, A488 fluor inactive, TSHR agonist 0% and A647 fluor 3.1e-09.
For O=C(O)c1ccn(Cn2cnc3ccccc32)n1 the results were AID923 1.0%, Resorufin autofl inactive, A488 fluor inactive, TSHR agonist -2% and A647 fluor 1e-09.

Entries from the list above with two or more sulfur atoms:
`O=S(=O)(NCC1CCCO1)c1cccc2nsnc12` (centres undefined) gave AID923 -3.2% and TSHR agonist -9%.
For O=C(NCc1ccco1)c1cc2c(s1)CSC2 the results were AID923 5.1%, Resorufin autofl inactive, A488 fluor inactive, TSHR agonist -19% and A647 fluor 1e-09.
O=C(c1ccco1)N1CCN(S(=O)(=O)c2cccc3nsnc23)CC1 was read as AID923 -0.5%, Resorufin autofl inactive, A488 fluor inactive, TSHR agonist -1% and A647 fluor 1.8e-08.
Cc1csc(NC(=O)CSc2nnc(Cn3c(=O)sc4ccccc43)n2-c2ccccc2)n1 was read as AID923 1.0% and TSHR agonist 6%.
`CCOC(=O)c1sc(NC(=O)CSc2nnnn2-c2ccc(C)cc2)c(C(=O)OCC)c1C` gave AID923 0.2%, Resorufin autofl inactive, A488 fluor inactive, TSHR agonist 6%[11.4 µM] and A647 fluor 2.1e-08.

Assay outcomes: PubChem, National Center for Advancing Translational Sciences (NCATS)
